D2 agonist: activates the human D2 dopamine receptor | P14416 | DiscoveRx PathHunter D2 beta-arrestin, luminescence, 90 min; 100% = 57 uM dopamine signal | activation, % (test concentration not listed) | 360,000 compounds, 0.084% hits; in the data active = activation above about 40%; inconclusive = about 15% to 40%; inactive = below about 15%; further: compound concentration not given in the record; the text of the record calls up to 30% inactive
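DiscoveRx PathHunter D2 beta-arrestin cells (2,100/well) attached overnight, then compound-stimulated 90 min at 37 C in HBSS/10 mM HEPES/0.1% Tween-20 buffer; beta-galactosidase complementation read by luminescence after 1 h at ambient temperature. Dopamine 57 uM final (EC100) as control.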
CtBP-E1A blk: CtBP/E1A binding inhibition; AlphaScreen GST-E1A/His-CtBP binding, 1536-well; active compounds read low; control for the full effect not named in the record; activity change, % (concentration not given with the values); 340,000 compounds, 0.49% hits; in the data active means activity change below about -65%; inconclusive means about -30% to -65%; inactive means above about -30%; further: on the % scale 0 is the no-effect control and ±100 the full control effect
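Protein mix (5X: 125 nM each GST-E1A, His-CtBP) was incubated with pinned compound 2 h at 37 deg C in dark, in 50 mM Tris pH 8.0 buffer with 300 mM NaCl. Glutathione donor and nickel acceptor beads followed; AlphaScreen signal read after 1 h.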
PINK1 expr mod: PINK1 expression modulation | AID 624263 | Potency, µM (doses to about 76.6 µM), for the others: at the highest dose activation (PINK1 increase), most hits filed as activators | PINK1 immunofluorescence, high-content cytometry, 24 h | 410,000 compounds, 0.2% hits; active = well fitted activation curve with a large enough effect; inconclusive = small, poorly fitted or top-dose-only effect; inactive = flat fitted curve, though single readings scatter; cell line not stated here;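 further: potency means the concentration at half of the fitted maximal effect; % of control where 0% means no effect; nearly all actives have a fitted effect of over 65% in size; a mitochondrial uncoupler was the plate control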
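Stable cell line treated 24 h with compounds at 5 concentrations (CCCP controls), then fixed and immunostained for PINK1 plus nuclear and cell stains; PINK1 immunofluorescence quantified by laser-scanning microplate cytometry.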
TRPML1 agonist: human mucolipin-1 channel agonism; TRPML1-expressing cells, Ca2+ dye fluorescence, FDSS; host cell line not named in the record; reference of the full effect not given here; activation, % (concentration not given with the values); 410,000 compounds, 0.12% hits; AID 624414; in the data active = activation above about 50%; inconclusive = about 30% to 50%; inactive = below about 30%; further: 0% is about no effect; the text of the record puts the active cut at 80%
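In this qHTS format, compounds were pin-transferred onto Ca8-dye-loaded TRPML1-DL cells induced with Tet overnight, and intracellular Ca2+ fluorescence was recorded kinetically for 110 s after a 10 s baseline. A subsequent 4uM final 54-4 (EC80) addition followed by a second 110 s read served as the antagonist phase.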
Six1-Eya2 inh: Six1/Eya2 interaction inhibition | Q15475+O00167 | AlphaScreen GST-Six1/His-Eya2 binding, biochemical; active compounds read low; control for the full effect not named in the record | activity change, % (test concentration not listed) | 360,000 compounds, 0.56% hits | AID 651725; in the data active = activity change below about -65%; inconclusive = about -30% to -65%; inactive = above about -30%; further: on the % scale 0 is the no-effect control and ±100 the full control effect
Target sequence (O00167 whole entry, looked up): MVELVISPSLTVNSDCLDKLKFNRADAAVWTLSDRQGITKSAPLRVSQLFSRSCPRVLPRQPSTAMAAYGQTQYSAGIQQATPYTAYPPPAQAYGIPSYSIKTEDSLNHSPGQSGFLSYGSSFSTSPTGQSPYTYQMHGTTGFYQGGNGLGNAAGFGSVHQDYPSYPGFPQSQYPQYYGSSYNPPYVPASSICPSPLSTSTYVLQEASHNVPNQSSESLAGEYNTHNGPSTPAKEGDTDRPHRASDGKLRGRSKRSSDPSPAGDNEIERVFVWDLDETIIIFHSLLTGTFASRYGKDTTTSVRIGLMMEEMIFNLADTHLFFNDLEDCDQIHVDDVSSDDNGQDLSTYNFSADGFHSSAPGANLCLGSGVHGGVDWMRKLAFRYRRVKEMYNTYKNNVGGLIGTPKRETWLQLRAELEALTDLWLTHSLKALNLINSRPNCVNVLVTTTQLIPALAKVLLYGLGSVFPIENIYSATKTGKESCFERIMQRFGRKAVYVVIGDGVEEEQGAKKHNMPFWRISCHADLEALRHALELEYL
Target sequence (Q15475 whole entry, looked up): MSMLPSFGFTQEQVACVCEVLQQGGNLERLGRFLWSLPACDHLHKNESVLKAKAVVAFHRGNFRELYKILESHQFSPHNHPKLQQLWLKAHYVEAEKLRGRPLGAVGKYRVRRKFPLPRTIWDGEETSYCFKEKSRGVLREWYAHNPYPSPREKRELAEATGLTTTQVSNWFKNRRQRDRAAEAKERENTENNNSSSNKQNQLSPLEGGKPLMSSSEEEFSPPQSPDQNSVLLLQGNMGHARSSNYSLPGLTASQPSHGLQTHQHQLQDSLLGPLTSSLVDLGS
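AlphaScreen luminescence read after one hour at 37 °C in darkness. Pin-transferred compounds met GST-Six1 and His-Eya2 protein (5X stock 250 nM/500 nM) plus glutathione donor and Ni-chelate acceptor beads (5X, 50 ug/mL).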
D2 potentiator: human D2 receptor positive allosteric modulation; P14416; DiscoveRx D2 beta-arrestin cells, luminescence, 90 min; 100% = 57 uM dopamine signal; potentiation, % (test concentration not listed); 360,000 compounds, 0.23% hits; AID 624464; active = potentiation of 50% or more; inconclusive = 30% to 50%; inactive = 30% or less;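 further: compound concentration not given in the record; tested on top of an EC20 dose of dopamine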
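PathHunter beta-arrestin assay in DiscoveRx D2 cells. Compounds were added with an EC20 of dopamine (50 nM final) for 90 min at 37 deg C. Luminescence was read 1 h after detection reagent, with 57 uM dopamine as the EC100 control.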
* marks the source's active call; other numbers are inactive results; ? = inconclusive; . = not tested or not shown; [ ] = another dose, or the depositor's remark.

Value order: TRPML1 agonist	Six1-Eya2 inh	D2 potentiator	D2 agonist	CtBP-E1A blk	PINK1 expr mod
- COc1ccc(CCNC(=O)Cc2cccc(C(F)(F)F)c2)cc1OC
  -0.4	-7	-7	2.3	-3	2.0%
- Cc1cccn2cc(CSc3ccccc3N)nc12
  -0.2	-3	0	2.8	3	-1.3%[38.3 µM]
- CC(=O)OCC(=O)Nc1c(C)cc(C)cc1C
  2.3	4	-2	-4.0	0	-2.4%
- CCOCCCNCc1cc(Br)ccc1OCc1ccccc1
  3.6	6	2	0.9	0	18%
- CCOc1ncccc1C(=O)N=c1sccn1C
  0.6	-2	-8	-2.5	-14	2.0%
- N#Cc1nc(COc2ccc(Br)cc2)oc1N1CCCC1
  3.5	?	-8	-3.2	-26	1.8%
- CC(=O)c1ccc(NC(=O)COc2ccccc2C(=O)Nc2ccc(C)cn2)cc1
  0.0	-1	-3	-3.3	.	9.3%
- Cc1ccc(C)c(OCC(=O)N(Cc2ccccc2)c2c(N)n(Cc3ccccc3)c(=O)[nH]c2=O)c1
  -0.1	7	-14	-3.0	7	6.3%
- O=C(O)COc1ccccc1/C=C1\SC(=S)N(NC(=O)c2ccccc2O)C1=O
  0.8	-73*	8	-3.1	-81*	1.4%
- COc1cc(CNC(=O)CCCC/C=C/C(C)C)ccc1O
  1.3	-6	1	-2.0	-2	1.4%
- CC1=CC(C)(C)Nc2ccc(OC(=O)C(Cc3ccccc3)N3C(=O)c4ccccc4C3=O)cc21 (stereo not given)
  0.4	?	-12	-3.6	-19	-1.6%
- COCC(=O)N(Cc1cc2ccc(C)cc2[nH]c1=O)c1ccc(C)cc1C
  0.1	2	-8	3.7	14	-1.6%
- COc1ccccc1OCC(=O)NCc1nc(-c2ccccc2)no1
  0.7	-2	0	1.7	0	2.2%
- COc1ccc(C(=O)c2oc3nc(C)cc(C)c3c2N)cc1
  1.8	-1	-14	-2.7	-6	0.0%
- COC(=O)C1=C(C)N(c2ccc(F)cc2)C(=O)C1
  1.9	26	-7	-2.7	1	-1.0%
- COc1ccc(Oc2cccc(Cl)c2CNC(=O)CCC(=O)O)cc1
  0.3	0	-22	-0.6	0	2.2%
- CS(=O)(=O)N(CC(=O)NCCSc1ccccn1)c1ccc(F)cc1
  0.3	-2	-9	-0.5	0	-0.9%
- CC(CNCCCn1cnc2c(OCc3ccccc3)ncnc21)c1ccccc1 (stereo not given)
  0.1	0	.	-2.6	-1	-0.8%
- Cc1cc(C)cc(NC(=O)CSc2nnc(-c3ccccc3Br)o2)c1
  1.5	-2	-10	-2.9	-4	4.6%[38.3 µM]
- CCCNC(=O)Cn1cnc2sc(C(=O)N3CCN(CCC)CC3)c(C)c2c1=O
  -0.8	-2	-12	-0.6	2	4.2%

Limited to Six1-Eya2 inh and D2 potentiator (3 entries from above):
smiles | Six1-Eya2 inh | D2 potentiator
COc1cc(CNC(=O)CCCC/C=C/C(C)C)ccc1O | -6 | 1
CC1=CC(C)(C)Nc2ccc(OC(=O)C(Cc3ccccc3)N3C(=O)c4ccccc4C3=O)cc21 (stereo not given) | ? | -12
COCC(=O)N(Cc1cc2ccc(C)cc2[nH]c1=O)c1ccc(C)cc1C | 2 | -8

The results go on.
Value order: TRPML1 agonist	Six1-Eya2 inh	D2 potentiator	D2 agonist	CtBP-E1A blk	PINK1 expr mod
- Cc1ccc(NC(=O)CCc2ccc(C)o2)cc1
  0.7	0	-9	-5.1	0	3.0%
- CCN(C(=O)CN1C(=O)S/C(=C\c2cccc(Cl)c2)C1=O)C1CCS(=O)(=O)C1 (stereo not given)
  0.1	-3	1	6.5	-1	0.5%
- CCOC(=O)c1c(NC(=O)COC(=O)c2ccc(C)s2)sc2c1CC(C)(C)NC2(C)C
  1.0	8	-25	-1.6	-11	-1.9%
- COc1ccccc1OCC(=O)NNC(=O)CSC(=S)N1CCCC1
  -1.0	4	-6	-4.2	.	0.4%
- N#CC1=C(N)SC(C(=O)c2ccccc2)C1c1cccs1 (stereo not given)
  4.1	-2	-2	-0.2	-5	0.6%
- CCC(C)NC(=O)CO/N=C/c1ccccc1OC(F)F (stereo not given)
  0.4	13	8	-1.5	7	-1.1%
- COc1ccc(NC(=O)CN(C)C(=O)/C=C/c2ccc(S(=O)(=O)N3CCCCCC3)cc2)cc1
  -0.8	5	-4	-9.7	-13	3.6%
- Cc1c(NC(=O)C(C)Oc2ccccc2F)c(=O)n(-c2ccccc2)n1C (stereo not given)
  0.2	2	-7	-0.7	4	0.5%
- COc1ccc(NC(=O)c2sc3nc(N4CCOCC4)c4c(c3c2N)CC(C)(C)OC4)cc1
  -0.4	7	-7	-0.2	5	9.0%
- CN(C)CCCCOc1ccccc1-c1ccccc1
  0.2	1	-21	-1.1	-5	-2.5%[38.3 µM]
- Cc1cc(S(=O)(=O)NCc2ccccc2)ccc1OCC(=O)NCc1cccnc1
  0.4	12	2	1.3	2	0.5%
- Cc1nc(NCc2ccco2)c2c3c(sc2n1)CCC3
  -0.7	-18	-6	-1.1	-7	2.6%
- CCc1c(C)nc2ncnn2c1NCCc1ccc(OC)c(OC)c1
  0.6	-7	-4	-0.3	-6	0.9%[38.3 µM]
- CCC(C)[C@H](NC(=O)N1CCCCCC1)C(=O)O (stereo not given in full)
  0.5	-1	-5	-1.5	-13	0.2%
- CCOC(=O)C1=C(COC(=O)c2ccco2)NC(=O)NC1CC (stereo not given)
  -0.8	0	-1	7.7	.	2.0%
- CN(C(=O)c1c(Cl)nc2sccn12)C1CCCCC1
  5.2	0	-1	2.6	7	-2.8%[38.3 µM]
- Cc1cc(C)n(-c2cc(=O)n(C)c(=O)n2C)n1
  -0.5	4	14	-2.9	2	0.0%
- COC(=O)c1ccccc1CSc1nsc(C)c1C#N
  3.5	24	4	11	28	-0.6%
- Cc1ccc(C(=O)NC(=S)Nc2ccc(CN3CCCCC3)cc2)c(C)c1
  -0.1	-21	-12	-0.2	-17	5.4%
- Fc1ccc(Sc2cc(Cl)c(-c3ccccc3)nn2)cc1
  2.3	14	-3	2.3	9	1.2%
- O=C(NCc1cccs1)C1CCC(CNS(=O)(=O)c2cccc3nsnc23)CC1 (stereo not given)
  -0.1	1	-8	-1.7	-25	2.4%
- COc1ccc(Cc2nnc(NC(=O)c3cccc([N+](=O)[O-])c3C)s2)cc1
  0.7	-2	-1	-3.0	-3	1.3%[38.3 µM]
- CC1(C)CC(=O)C=C(c2ccccc2-c2ccc(S(C)(=O)=O)cc2)C1=O
  -0.7	0	0	-8.6	0	1.7%
- CN(C1=NC(=O)CS1)c1ccc(O)cc1
  0.1	3	-4	-1.6	4	0.8%
- Cc1nn(-c2ccccc2)c(C)c1-c1nnc(-c2c(C)nn(-c3ccccc3)c2C)o1
  -0.2	-25	-7	0.5	8	5.0%
- O=C(CCN1C(=O)C2C3C=CC(C3)C2C1=O)N1CCN(c2ccc(F)cc2)CC1 (stereo not given)
  0.7	17	-15	-4.5	0	1.5%
- CCC(=O)N1CCN(c2ccccc2NC(=O)c2ccc(-c3cccc([N+](=O)[O-])c3)o2)CC1
  0.8	-26	7	-0.5	-17	-0.7%
- O=C(Nc1ccc2nccnc2c1)c1ccco1
  0.2	-12	-9	-1.8	.	1.6%
- Cc1ccc2oc(C(=O)Nc3ccc(S(=O)(=O)Nc4onc(C)c4C)cc3)c(C)c2c1
  -0.4	-1	7	0.9	3	0.5%
- O=C(c1ccc(Cl)cc1)N(Cc1ccc(Br)cc1)N1C(=O)CCC1=O
  -0.3	11	-7	-3.3	7	0.2%
- CN(N)c1nc(N2CCCC2)nc(N2CCCC2)n1
  -0.6	-1	-11	-3.5	-2	-0.3%
- CC(C)(C)NS(=O)(=O)c1ccc(NC(=O)C(Sc2ccccc2)c2ccccc2)cc1 (stereo not given)
  1.7	1	5	2.0	-4	.
- COc1ccc(CCNC(=O)CCNC(=O)N2CC(=O)Nc3ccccc32)cc1
  -0.5	3	-5	-5.8	2	-0.2%
- COc1ccccc1NC(=O)CSc1sc2c(O)cc(=O)[nH]c2c1C#N
  0.9	-4	-8	-5.8	-8	0.4%
- CCOc1ccccc1-c1ccc(C(=O)NCc2ccccc2)o1
  3.0	-13	-28	0.3	-10	-0.8%
- Cc1cc(C)c2c(-c3ccc(F)cc3)c(C#N)c(=O)n(C)c2n1
  1.5	13	-7	-2.4	7	0.0%
- Nc1c(C(=O)NCCC2=CCCCC2)sc2ccc(S(=O)(=O)N3CCCCC3)cc12
  0.6	5	-2	-3.2	.	0.0%
- O=C1NC(=Nc2ccc(F)cc2)CS1
  1.1	6	2	-0.5	-1	1.2%
- O=C(Cn1nnc(-c2ccc(N3CCOCC3)cc2)n1)N1CCOCC1
  -0.1	2	-12	-5.7	.	-0.4%
- COC(=O)c1ccccc1NC(=O)CSc1nc2ncccc2[nH]1
  0.1	-4	-4	5.1	3	-0.3%
- CCCCn1c(N)c(N(CC)C(=O)C2=NN(c3ccccc3)C(=O)CC2)c(=O)[nH]c1=O
  0.2	5	20	-0.6	0	0.5%
- Cc1ccc(NS(=O)(=O)c2ccc(C(=O)N3CCN(c4ccccn4)CC3)cc2)cc1
  1.2	-1	7	8.1	2	1.9%
- COc1ccc(C(c2nnnn2Cc2ccccc2)N2CCN(c3nc4ccccc4s3)CC2)cc1OC (stereo not given)
  1.7	-9	-9	-1.2	-12	-0.6%
- CC(C)C(NC(=O)c1c(F)cccc1F)C(=O)NCc1ccc(S(=O)(=O)N2CCOCC2)cc1 (stereo not given)
  -1.1	1	5	-1.8	.	0.0%
- CC(Oc1ccc(Cl)cc1)C(=O)N/N=C/c1ccsc1 (stereo not given)
  -1.0	4	-10	-4.9	8	-2.4%
- Cc1c(OC(C)C(=O)NCc2cccnc2)ccc2c3c(c(=O)oc12)CCCC3 (stereo not given)
  -0.8	-6	-25	2.4	-12	2.2%
- CC(C)(C)c1ccc(C(=O)Nc2cccc3ncccc23)cc1
  0.9	0	1	7.8	3	1.9%
- COc1ccc(OC)c(CN2CCN(C(=O)c3cc(S(=O)(=O)Nc4ccccc4OC)ccc3C)CC2)c1
  -0.7	-12	-32	-3.8	7	1.7%
- O=C(NC1CCN(C(=O)NC2CCCCC2)CC1)c1ccco1
  3.1	5	9	-4.3	6	-3.8%
- CCOc1ccc(-c2noc(-c3cccnc3)n2)cc1OC
  0.3	9	2	-0.6	-1	-1.4%
- NNc1cccc(C=Cc2ccccc2)cc1=O
  -0.1	-17	17	2.8	-3	?
- Cc1ccc(C)c(S(=O)(=O)NCC(=O)OCC(=O)Nc2sccc2C(N)=O)c1
  -0.6	-10	16	-1.4	-3	2.0%
- CC(C)(C)NC(=O)C[C@H]1C[C@H](C(=O)N2CCOCC2)[C@@]2(CCC3CCCC3)c3[nH]c4ccc(Cl)cc4c3CCN2C1=O
  0.4	-4	.	0.5	0	?
- Cc1cccc(NC(=O)c2sc3nc4c(c(-c5cccs5)c3c2N)CN(C)CC4)c1
  4.4	-30	-4	-2.3	-24	-5.4%
